Compound activity as filed in PubChem.
VACV Venus inh: vaccinia inhibition (Venus reporter). Vaccinia virus Venus reporter expression, fluorescence. 0.46% of 330,000 active. AID 720580. Potency, µM (doses to about 36.5 µM), inactives show top-dose activity change, negative = inhibition, most hits filed as inhibitors; active means well fitted inhibition curve with a large enough effect; inconclusive means small, poorly fitted or top-dose-only effect; inactive means no such curve, though single readings can be large or run the other way; tested in A549 cells; further: nearly all actives have a fitted effect of over 30% in size; inactives centre near -10
Vaccinia mCherry: inhibitors of vaccinia virus infection (mCherry reporter signal); Potency, µM (highest dose often 36.5 µM), for inactives: at the top dose activity change, negative = inhibition, hits mostly inhibitors; 0.63% of 310,000 active; Vaccinia virus mCherry reporter infection, fluorescence; about a quarter of the inactives have no number; AID 720579; active = well fitted inhibition curve with a large enough effect; inconclusive = small, poorly fitted or top-dose-only effect; inactive = no such curve, though single readings can be large or run the other way; tested in A549 cells; further: nearly all actives have a fitted effect of over 35% in size; inactives centre near -10
* = called active by the depositor; i = inactive; ? = inconclusive; . = not tested or not shown; & = joins results of further samples; [ ] = another dose, or the depositor's remark. On the % scale 0 is the no-effect control and ±100 the full control effect; potency means the concentration at half of the fitted maximal effect.

SMILES	VACV Venus inh	Vaccinia mCherry
COC(=O)C1C2C=CC3(CN(CCc4ccccc4)C(=O)C13)O2 (centres undefined)	2%	-7%
COc1ccccc1N1CCN(C(CNC(=O)C(=O)NCc2ccc(C)cc2)c2cccnc2)CC1 (centres undefined)	?	-28%
O=C(Nc1ccc2ccccc2c1)N1CCN(c2ncccc2C(F)(F)F)CC1	-2%	-16%
CCCS(=O)(=O)c1ncc(Cl)c(C(=O)N(Cc2ccccc2)Cc2ccco2)n1	-12%[7.34 µM]	-13%[7.34 µM]
COc1ccc(-c2ccc(CN3C(CC(C)C)C(=O)N(Cc4cn(Cc5ccco5)nn4)CCS3(=O)=O)cc2)cc1OC (centres undefined)	-12%	i
O=C(COC(=O)C1=COCCO1)Nc1cc(S(=O)(=O)N2CCCCC2)ccc1Cl	-9%	-9%
O=c1c2c(-c3cccs3)csc2ncn1/N=C/c1ccccn1	-6%[7.34 µM]	-14%[7.34 µM]
Cc1ccc(CNC(=O)C(=O)NCC2CCCO2)cc1 (centres undefined)	-5%	.
CCN(Cc1ccccc1)C(=O)COC(=O)[C@@H]1CCCN1C(=O)c1cccs1	-10%	-5%
O=C(c1ccc(F)cc1)n1c(NCc2ccccc2)n[nH]c1=S	-3%	3%
Brc1cccc(/C=N/Nc2nn[nH]n2)c1	-13%	i
O=C(NC(=S)Nc1ccccc1OC(F)F)c1ccc2c(c1)OCO2	-22%	-29%

In the list so far, two have an aryl methoxy group.
SMILES	VACV Venus inh	Vaccinia mCherry
COc1ccccc1N1CCN(C(CNC(=O)C(=O)NCc2ccc(C)cc2)c2cccnc2)CC1 (centres undefined)	?	-28%
COc1ccc(-c2ccc(CN3C(CC(C)C)C(=O)N(Cc4cn(Cc5ccco5)nn4)CCS3(=O)=O)cc2)cc1OC (centres undefined)	-12%	i

Next section.
SMILES	VACV Venus inh	Vaccinia mCherry
Cc1ccc(-n2nnnc2SCc2nc3sc(C)c(C)c3c(=O)[nH]2)cc1	-8%	i
CN1CCC(=NNC(=O)CN(c2ccc([N+](=O)[O-])cc2)S(=O)(=O)c2ccccc2)CC1	-6%	-28%
O=C(NCCN1CCCCC1)c1ccc(I)cc1	0%	-7%
Cc1ccc(-n2c([C@@H]3C[C@H]3c3ccccc3)n[nH]c2=S)cc1	-2%	i
O=C(Nc1ccc(Cl)cc1)N1CCN(c2ncccn2)CC1	-16%	-10%
O=C(Nc1ccc2nc(SCC(=O)N3CCOCC3)sc2c1)c1cccc(Cl)c1	-15%	-5%
CC(NC(=O)COC(=O)c1cc2ccccc2cc1O)c1ccccc1 (centres undefined)	-18%	i
C=CCn1c(SCC(=O)N(C(C)CC)C2CCS(=O)(=O)C2)nc2ccccc2c1=O (centres undefined)	-13%	-14%
CN(C)c1ccc(/C=C/c2cc[n+](C)cc2)cc1	i	86%[activator]
O=CNc1cc2c(cc1Br)-c1ccccc1C2O (centres undefined)	-20%	i
CCc1nc2c(OCc3ccc(Cl)cc3)cccn2c1N(C=O)Cc1ccc(OC)cc1	?	-7%
COc1cccc(-n2c(CNC(=O)OC(C)(C)C)n[nH]c2=S)c1	-19%	?
Cc1ccc(C(=O)NCCN2CCCC2)cc1	-8%	.
COc1ccc(C(=O)c2sc(Nc3ccccc3)nc2N)cc1	?	i
COc1ccc(C#Cc2cnc3c(c2)C(=O)N([C@H](C)CO)C[C@H](C)[C@@H](CN(C)C(=O)Nc2cccc(OC)c2)O3)cc1	-25%	10%
O=C(OCc1cc2ccccc2[nH]c1=O)C1CCCO1 (centres undefined)	-1%	-17%
O=C(OCCOCCN=C1NS(=O)(=O)c2ccccc21)c1ccccc1	9%	-10%
O=C1NCN(c2ccccc2)C12CCN(C(c1cccs1)c1nnnn1Cc1ccccc1)CC2 (centres undefined)	6%	30%
O=C(NNC1=NCCC1)C1CC1	3%	-4%
CCCCn1c(NS(=O)(=O)c2ccccc2)c(S(=O)(=O)c2ccc(C)cc2)c2nc3ccccc3nc21	-3%	-14%
CN(C)C(=O)c1ccc(NC(=O)c2cccc(S(=O)(=O)N3CCCc4ccccc43)c2)cc1	-18%	-14%
Cc1nc2c3cc(Cl)ccc3n(CCN3CCOCC3)c2s1	-24%	-27%
Nc1cc(C(=O)O)c(N)c2c1C(=O)c1ccccc1C2=O	-16%	?
Cc1cc2oc(=O)cc(CN3CCCC3)c2cc1Cl	0%	i
CC1(C)CC(=O)C(C(=O)Cc2ccccc2[N+](=O)[O-])C(=O)C1	-3%	i
O=C(N/N=C/c1ccccn1)c1ccccc1	6%	?
Cc1cn2c(N)c(/C=C3\C=Nc4ccccc43)c(=O)nc2s1	-5%	-8%
COC(=O)c1ccc[n+](CC(=O)c2ccc(Br)cc2)c1	-14%	i
COc1ccc(C(=O)NCCc2c[nH]c3ccccc23)cc1S(=O)(=O)N1CCOCC1	4%	-11%
O=C(NCc1c(Cl)cccc1Cl)c1[nH]c(C(F)(F)F)nc1-c1ccccc1	-2%	-4%
CCCCCCCCCCCCCc1ccco1	-13%	-12%
COc1ccc(-c2nc(CS(=O)CC(=O)NC3CCCCC3)c(C)o2)cc1OC (centres undefined)	-4%	i
Cc1nc2ccc(Cl)cn2c1[N+](=O)[O-]	-7%	i
COc1ccc(C(=O)NCc2nnc(SCC(=O)Nc3ccccc3)n2-c2ccccc2)cc1	-7%	-15%
CCOC(=O)c1ccc(N2C(=O)c3n[nH]c(-c4ccco4)c3C2c2cccc([N+](=O)[O-])c2)cc1 (centres undefined)	?	?
S=C(Nc1cc(Cl)ccc1Cl)Nn1cnnc1	0%	-2%
COc1ccc(C(=O)Oc2cccnc2)cc1OC	0%	-12%
COc1ccc(N(CC(=O)NCCC(C)C)C(=O)c2snc(C(=O)NC3CCCCC3)c2N)c(OC)c1	-18%	-14%
Cc1cc(-c2[nH]nc3c2C(c2ccsc2)C(C#N)=C(N)O3)c(C)s1 (centres undefined)	33%[activator]	.
O=C(NCCc1ccccc1)c1cc(Nc2ccccc2)nc2ccccc12	-17%	-23%
COc1ccc(-c2cc(NC(=O)c3cncn3-c3ccccc3)ccc2OC)cc1	-15%	-22%
C=CCn1c(NCc2ccc3c(c2)OCO3)nc2ccccc21	-17%	.
COc1ccc(CCNC(=O)CCCCn2c(=O)c3ccccc3n(CC(=O)Nc3c(C)cccc3C)c2=O)cc1OC	-2%	-6%
CCOc1ccc(N2C(=O)CC(SC(=NC)Nc3cccc(OC)c3)C2=O)cc1 (centres undefined)	-17%	i
COc1cc(-c2nc3ccc(C)cn3c2NCc2ccccc2)ccc1SC1CCCCC1	-29%	-21%
Nc1nnc(SCC(=O)Nc2ccccc2)s1	-6%&-8%	-15%
CC1CCCN(CC(=O)NNC(=O)COc2ccc(Br)cc2)C1 (centres undefined)	-14%	i
CCOC(=O)c1c(N)sc2c1C1CCN2CC1	?	.

Single records, from the list above. Order of screens: VACV Venus inh, Vaccinia mCherry
COc1ccc(-c2nc(CS(=O)CC(=O)NC3CCCCC3)c(C)o2)cc1OC (centres undefined) reads -4%, i
COc1ccc(C(=O)NCc2nnc(SCC(=O)Nc3ccccc3)n2-c2ccccc2)cc1 reads -7%, -15%
O=C(NCc1c(Cl)cccc1Cl)c1[nH]c(C(F)(F)F)nc1-c1ccccc1 reads -2%, -4%
CN(C)c1ccc(/C=C/c2cc[n+](C)cc2)cc1 reads i, 86%[activator]
Nc1nnc(SCC(=O)Nc2ccccc2)s1 reads -6%&-8%, -15%

At a glance, three of the compounds above:
SMILES	VACV Venus inh	Vaccinia mCherry
Nc1nnc(SCC(=O)Nc2ccccc2)s1	-6%&-8%	-15%
CC1CCCN(CC(=O)NNC(=O)COc2ccc(Br)cc2)C1 (centres undefined)	-14%	i
CCOC(=O)c1c(N)sc2c1C1CCN2CC1	?	.

Next entries follow.
SMILES	VACV Venus inh	Vaccinia mCherry
C[C@@H](NC(=O)c1[nH]cnc1C(=O)Nc1cccc(Cl)c1)c1ccccc1	-25%	-3%
CCN(C[C@H]1N[C@@](Cc2ccccc2)(C(=O)OC)[C@H]2C(=O)N(C)C(=O)[C@@H]12)S(=O)(=O)c1ccc(C(F)(F)F)cc1	0%	-16%
COCCNC(=O)C1(C)CCCN(CCSc2ccccc2)C1 (centres undefined)	12%	31%[activator]
Cc1cc(C)c(OCC(=O)OCC(=O)N2CCN(C(=O)c3ccco3)CC2)c(C)c1	-5%	i
O=C(N/N=C/c1cccc(Oc2ccc([N+](=O)[O-])cc2[N+](=O)[O-])c1)c1cncc(Br)c1	-25%	?
CCOC(=O)N1CCN(Cc2nc3c(c(=O)n(C)c(=O)n3C)n2Cc2cccc3ccccc23)CC1	16%	.
COc1ccc(CNC(=O)COc2cc(=O)n(C)c3ccccc23)cc1	-3%	i
CCC(=O)Oc1c(Sc2ccc(Cl)cc2)c(C)nn1C(C)(C)C	-2%	-7%
O=C(Nc1cccc(NC(=O)c2ccc(Cl)cc2Cl)c1)c1cccnc1	-24%	-19%
Cc1[nH]oc(=O)c1N=Nc1ccccc1	-16%	?
COc1ccc(OC)c(NC(=O)C2CCCN2C(=O)C2CCC(C)CC2)c1 (centres undefined)	-10%	-8%
Cc1nc(C(F)(F)F)ccc1C(=O)N1CCCC(C)(C(=O)O)C1 (centres undefined)	3%	27%

Compounds shown so far containing a COOH group, in the order listed:
SMILES	VACV Venus inh	Vaccinia mCherry
Nc1cc(C(=O)O)c(N)c2c1C(=O)c1ccccc1C2=O	-16%	?
Cc1nc(C(F)(F)F)ccc1C(=O)N1CCCC(C)(C(=O)O)C1 (centres undefined)	3%	27%

Going on with the list:
SMILES	VACV Venus inh	Vaccinia mCherry
COc1ccc(S(=O)(=O)O)cc1P(=O)(c1ccccc1)c1ccccc1	-4%	i
Cn1c(=O)[nH]c(=O)c2c1nc(N1CCOCC1)n2CCCSc1ncccn1	-4%	.
O=C(COC(=O)Cc1cccc(C(F)(F)F)c1)Nc1ccccc1	0%	-10%
CCOc1ccc(/C=C2\SC(=O)N(CCNC(=O)C3COc4ccccc4O3)C2=O)cc1OC (centres undefined)	-23%	-25%
COc1cc2c(cc1OC)CN(C(=O)c1nn(Cc3ccccc3)c(=O)c3ccccc13)CC2	?	?
O=C(COC(=O)CCC(=O)c1ccc(F)cc1)NCc1ccc(Cl)cc1	-13%	-2%
O=C(Cn1cc([N+](=O)[O-])cn1)Nc1ccn(Cc2c(F)c(F)cc(F)c2F)n1	-8%	i
COc1ccc(N2CCN(c3ncccc3C#N)CC2)cc1	-21%	-19%
Cc1nn(-c2ccccc2)c(C)c1NC(=O)COC(=O)c1ccc(Cl)c(N)c1	-3%	-11%
CSc1ccccc1-c1nnc(-c2ccc(Cl)cc2Cl)o1	-16%	i
Cc1ccc(NC(=O)C(SCC(=O)O)c2ccccc2)cc1C (centres undefined)	-12%	-18%
FC(F)(F)c1cccc(NC(=S)NCc2ccccc2)c1	?	.
COc1cccc(NC(=O)CSc2nnc(CNC(=O)c3ccco3)n2C)c1	-9%	-19%
CC1CCCN(C(=O)CSc2nnc(-c3c[nH]c4ccccc34)o2)C1 (centres undefined)	-8%	-14%
Cc1ccc(NC(=O)COc2cccnc2[N+](=O)[O-])cc1S(=O)(=O)N1CCOCC1	-23%	-13%
COc1ccc(/C=C2/N=C(SC)NC2=O)cc1OC	-23%	-6%
COC(=O)C1=C(C)N(Cc2ccccc2)C(=S)N[C@H]1c1cccc(F)c1	-15%	-3%
O=C1CCCC(=O)C1=C1SCCS1	-9%	-3%
COCCn1c(N)c(N(Cc2ccccc2)C(=O)c2ccc3ccccc3c2)c(=O)[nH]c1=O	-1%	i
COc1ccccc1NC(=O)C(C)OC(=O)c1ccc(-n2cnnn2)cc1 (centres undefined)	-1%	14%
O=C(Nc1ccc(-c2csc(Nc3ccccc3)n2)cc1)c1ccccc1	?	?
CC1Cn2cc(C(=O)Nc3cccc(C(F)(F)F)c3)c(=O)c3c(Cl)ccc(c32)O1 (centres undefined)	9%	-5%
COC(=O)C[C@@H]1C=C[C@H](NC(=O)c2ccccc2)[C@@H](CO)O1	-6%	-3%
O=C(C[n+]1cc(Br)cc2ccccc21)c1ccc(Cl)cc1	1%&1%	-14%
O=C(c1ccccc1F)N1CCN(C(=O)C(c2ccccc2)c2ccccc2)CC1	-9%	-1%
COc1ccc(-c2cc(C(=O)N3CCN(c4ccccc4)CC3)no2)cc1OC	-5%	i
CCOCCN(C(=O)c1ccccc1Cl)c1cccc(C)c1C	-2%	i
O=C(Cn1c2ccc(F)cc2c2nc3n(c(=O)c21)CCS3)Nc1ccc(Cl)cc1F	-6%	-2%
CCCn1c(N2CCN(C(=O)Nc3ccc(Cl)cc3)CC2)nc2ccccc21	?	?
CCC(=O)NNC(=O)c1c(O)c2ccccc2[nH]c1=O	-10%	-4%
CN1[C@@H]2CC[C@H]1CC(OC(=O)[C@H](CO)c1ccccc1)C2 (some centres undefined)	-11%	i
Cc1cc(C)cc(N(C(=O)CCC(=O)Nc2cc(C)on2)C(C(=O)NC2CCCC2)c2ccco2)c1 (centres undefined)	-15%	i
COc1cc(/C=N/NC(=O)c2cc[n+]([O-])cc2)cc(OC)c1OC	-16%	i
CSc1ccccc1NC(=O)Cn1nc([N+](=O)[O-])c(Cl)c1C	-13%	i
O=C(NC(=O)c1c(F)cccc1F)Nc1ccc(Cl)cc1	-11%	-21%
CCN1C(=O)c2n[nH]c(C(=O)OC)c2C1=O	2%	.
